Compound activity: PubChem, National Center for Advancing Translational Sciences (NCATS)
Menin MLL FP FL = displaces fluorescein MLL peptide from human menin; Fluorescence polarization, fluorescein-MLL peptide displacement from menin; FP activity change, % at 61.4 µM; 290,000 tested, under 10 active; AID 1766; inconclusive = falling polarisation curve, or a change in total fluorescence; inactive = total fluorescence flat and polarisation flat or rising; no compound was filed as active; the % refers to the polarisation; negative = inhibition;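 note: % of control where 0% means no effect; inhibitors lower the polarisation; unlabelled MLL peptide was the positive control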
PINK1 expr mod = changes PINK1 expression; PINK1 immunofluorescence, high-content cytometry, 24 h; Potency, µM (series often up to 76.6 µM), for the others: at the top dose activation (PINK1 increase), most hits filed as activators; AID 624263; actives 0.2% (n = 410,000); active = well fitted activation curve with a large enough effect; inconclusive = small, poorly fitted or top-dose-only effect; inactive = flat fitted curve, though single readings scatter; cell line not stated here;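 note: potency is the fitted concentration of half-maximal effect; % of control where 0% means no effect; nearly all actives have a fitted effect of over 65% in size; a mitochondrial uncoupler was the plate control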
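Stable cell line treated 24 h with compounds at 5 concentrations (CCCP controls), then fixed and immunostained for PINK1 plus nuclear and cell stains; PINK1 immunofluorescence quantified by laser-scanning microplate cytometry.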
Sfp inh = Sfp phosphopantetheinyl transferase inhibition. Q9F4F7. Biochemical Sfp PPTase activity, qHTS. Potency, µM, for the others: max response, negative = inhibition, hits mostly inhibitors. actives 3.5% (n = 310,000); active = well fitted inhibition curve with a large enough effect; inconclusive = small, poorly fitted or top-dose-only effect, or another doubt; inactive = no such curve, though single readings can be large or run the other way;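 note: the enzyme is Sfp with the accession as filed and its product quenches rhodamine fluorescence; potency is the fitted concentration of half-maximal effect; 0% = enzyme reaction without inhibitor and -100% = no enzyme wells; top concentration of the series not given in the record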
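Sfp 15 nM + cpd, 15 min RT; start w/ rhodamine-CoA 5 uM, BHQ-2-YbbR 12.5 uM (final); 50 mM Hepes pH 7.6, 10 mM MgCl2, 0.01% NP-40, 0.01% BSA; read 525/598 nm at 0 and 30 min.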
gsp ag = gsp mutant agonism | gsp mutant cells, cAMP HTRF, 30 min; control for the full effect not named in the record | Potency, µM (highest dose often 76.9 µM), for the others: top-dose activation (cAMP increase), hits mostly activators | actives 0.13% (n = 340,000) | AID 624287; active = well fitted activation curve with a large enough effect; inconclusive = small, poorly fitted or top-dose-only effect, or another doubt; inactive = no such curve, though single readings can be large or run the other way; cell line not stated here;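 note: phosphodiesterase inhibitor Ro 20-1724 added with compounds to block cAMP breakdown; potency is the fitted concentration of half-maximal effect; nearly all actives have a fitted effect of over 60% in size; about a fifth of the inactives were tested at one dose only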
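Cells stably selected in G418 were plated at 2000/well, grown 16-24 hr, then given compounds in DMSO with the PDE inhibitor […] (300 uM solution added) for 30 min at 37C; cAMP was read by HTRF.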
gsp antag = antagonizes gsp, the McCune-Albright syndrome mutation. Potency, µM (highest dose often 76.9 µM), for the others: top-dose activity change, negative = inhibition, most hits filed as inhibitors. actives 0.4% (n = 340,000). AID 624288. gsp-mutant cells, cAMP HTRF, 30 min; control for the full effect not named in the record; active = falling curve of any shape with a large fitted effect; inconclusive = falling curve, mostly with a smaller effect; inactive = flat or rising curve; cell line not stated here;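 note: intracellular cAMP measured with PDE inhibitor Ro 20-1724 present during compound exposure; potency is the fitted concentration of half-maximal effect; % is set by controls: 0 for no effect and ±100 for the full control effect; nearly all actives have a fitted effect of over 65% in size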
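G418-selected cells were plated in DMEM/10% FBS for 16-24 h at 37C, then treated with compounds plus the PDE inhibitor […] (300 uM solution added) for 30 min at 37C. Intracellular cAMP was measured by HTRF after 30 min lysis at room temperature.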
D2 ag = activates the human D2 dopamine receptor; actives 0.084% (n = 360,000); DiscoveRx PathHunter D2 beta-arrestin, luminescence, 90 min; 100% = 57 uM dopamine signal; P14416; activation, % (test concentration not listed); AID 624465; in the data active = activation above about 40%; inconclusive = about 15% to 40%; inactive = below about 15%; note: compound concentration not given in the record; the text of the record calls up to 30% inactive
Target sequence (P14416 whole entry, looked up): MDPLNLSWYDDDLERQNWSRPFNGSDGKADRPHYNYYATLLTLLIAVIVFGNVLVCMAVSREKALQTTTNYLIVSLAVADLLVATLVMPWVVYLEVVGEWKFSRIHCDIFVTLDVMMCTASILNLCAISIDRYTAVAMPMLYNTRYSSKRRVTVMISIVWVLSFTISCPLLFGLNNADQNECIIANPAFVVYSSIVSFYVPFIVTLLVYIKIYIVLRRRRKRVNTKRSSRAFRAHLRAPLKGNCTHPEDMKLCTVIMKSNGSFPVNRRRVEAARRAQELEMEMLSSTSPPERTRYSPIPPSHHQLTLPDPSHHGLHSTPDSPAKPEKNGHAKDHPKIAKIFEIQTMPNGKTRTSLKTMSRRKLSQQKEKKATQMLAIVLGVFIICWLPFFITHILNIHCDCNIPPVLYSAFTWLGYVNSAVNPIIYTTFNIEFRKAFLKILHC
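Agonist mode: compounds alone added to overnight-plated D2 PathHunter cells for 90 min at 37 C, with 57 uM final dopamine (EC100) defining full response. Beta-arrestin recruitment detected by chemiluminescent reagent, read after 1 h at ambient temperature.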
ClpP mod = qHTS Assay for Activators of ClpP. Potency, µM (doses to about 57.5 µM), without a hit: at the highest dose activity change, negative = active. actives 1.9% (n = 340,000). purified B. subtilis ClpP, FRET peptide cleavage, 20 min; active = well fitted falling curve with a large enough effect; inconclusive = small, poorly fitted or top-dose-only effect; inactive = no such curve, though single readings can be large or run the other way; note: potency is the fitted concentration of half-maximal effect; the source files actives as falling curves though it sought activators and does not explain the sign; nearly all actives have a fitted effect of over 65% in size; many hits overshoot -100%
Target sequence (P80244 whole entry, looked up): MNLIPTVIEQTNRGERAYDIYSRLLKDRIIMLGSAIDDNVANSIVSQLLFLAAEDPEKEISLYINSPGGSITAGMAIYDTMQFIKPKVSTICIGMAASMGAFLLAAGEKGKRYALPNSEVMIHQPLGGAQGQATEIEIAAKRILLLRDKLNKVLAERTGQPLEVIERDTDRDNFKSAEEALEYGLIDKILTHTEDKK
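Buffer: 100 mM Tris/HCl pH8, 100 mM KCl, 0.05% low protease BSA, 2.5% glycerol, 0.01% Tween-20. ClpP 10 microg/mL final; 20 min RT; delta FRET normalized to ADEP and DMSO controls.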
Starred values were filed as active, the others as inactive; ? = inconclusive; nt = not tested or not shown; [ ] = remark or other dose. Rows are unselected. About 5.1% of those tested had a hit in this group.

SMILES	Menin MLL FP FL	PINK1 expr mod	Sfp inh	gsp ag	gsp antag	D2 ag	ClpP mod
CCCCN(C(=O)c1cccc(-c2ccc(OC(C)=O)cc2)c1)c1c(N)n(CCC)c(=O)[nH]c1=O	nt	-0.6%	nt	?	-8.9%	0.5	-0.2%
CCN1/C(=C/C=C/c2oc3ccc(-c4ccccc4)cc3[n+]2CC)Oc2ccc(-c3ccccc3)cc21	?	?	11.2µM*	0.2%[15.4 µM]	-6.3%	-6.3	nt
O=C(O)c1ccc(Cl)c(S(=O)(=O)Nc2ccc3[nH]c(=O)[nH]c3c2)c1	4.5	-0.6%	-6.9%	-17.7%	-4.8%	10.9	-5.0%
NS(=O)(=O)c1ccc(CNC(=S)NC2CC2)cc1	-1.8	0.4%	7.9%	0.2%[15.4 µM]	5.5%	-1.6	nt
COC(=O)c1ccccc1NC(=O)c1cc(OC)cc(OC)c1	4.9	-1.7%	?	-4.0%	-0.2%[15.4 µM]	-4.6	-28.4%
Cc1ccc(S(=O)(=O)N2CCN(C(=O)c3ccc(-n4cncn4)c([N+](=O)[O-])c3)CC2)cc1C	nt	0.0%	nt	4.9%[15.4 µM]	-8.0%	3.4	-2.0%
COc1cc(Br)cc(C2C3=C(CCCC3=O)N(c3ccc(F)cc3)C3=C2C(=O)CCC3)c1O	-1.0	1.8%	-21.4%	?	31.6µM*	-2.3	nt
Cc1ccccc1NC(=O)c1ccc(Nc2c([N+](=O)[O-])cc([N+](=O)[O-])c3ccccc23)cc1	6.7	1.2%	20.6%	25.3%	-10.1%	-10.5	1.7%
CC/C(Cc1ccccc1)=N/NC(=O)CNC(=O)c1ccc(Cl)cc1Cl	-1.5	-0.6%	12.3%	-37.6%[inhibitor]	5.4%	-1.3	-0.1%
CC(=O)Oc1ccccc1Cn1c(C)c(C(=O)NCc2cccc(Cl)c2)sc1=O	nt	0.8%	nt	nt	nt	9.4	1.0%
COc1ccc(-c2ccc3sc4ccccc4c(=O)c3c2)cn1	nt	1.1%	nt	nt	-14.9%	0.6	-5.6%
COc1ccccc1NC(=O)Cc1ccc(-c2ccccc2)cc1	0.9	1.8%	-9.4%	-4.6%[15.4 µM]	-30.7%	2.1	1.2%
CCOc1ccc(-c2nc(N)ncc2-c2ccc(OC)cc2)c(O)c1	-0.9	-2.5%	-2.9%	-25.0%	5.2%	-7.3	-2.5%
CCOc1ccc(CCN2C(=S)N([C@@H](CC(C)C)CN3CCCC3CN3C(=S)NC[C@@H]3CC(C)C)C[C@@H]2Cc2ccccc2)cc1 (stereo partly drawn)	nt	0.3%	nt	nt	9.9%	-1.3	0.0%
O=S(=O)(N1CCCCCC1)N1CCN(S(=O)(=O)N2CCCCC2)CC1	-0.6	1.3%[38.3 µM]	-2.4%	0.5%	1.3%	-2.0	-0.3%
C1CN(c2nc(N3CCOCC3)nc(N3CCOCC3)n2)CCO1	0.4	1.5%	16.4%	-5.4%	15.2%	-2.5	0.9%
CC(=O)O[C@@H]1[C@@H](O)[C@@H](O)[C@H](Oc2c(-c3ccc(O)cc3)oc3c(CC=C(C)C)c(O)cc(O)c3c2=O)O[C@H]1C	nt	-1.3%	nt	nt	10.5%	1.3	1.5%
COC(=O)c1ccc(COc2ccccc2/C=C(\C#N)C(=O)Nc2c(C)cc(C)cc2C)cc1	2.3	?	12.2%	8.1%[15.4 µM]	-1.8%	4.5	-1.1%
O=c1[nH]c2ccccc2nc1/C=C/c1ccc(Cl)cc1	5.2	7.7%	10.3%	0.1%[15.4 µM]	nt	-1.1	nt
Cc1cc(C)cc(NC(=S)N2CCN(CCO)CC2)c1	4.0	-3.0%	8.2%	-3.3%	13.8%	-1.8	-1.5%
O=C(CCCOc1ccc(Cl)cc1Cl)NCCCO	3.6	1.1%	21.2%	-11.9%	0.3%	1.3	1.8%
COCCn1nnnc1C(c1cccc(C(F)(F)F)c1)N1CCN(Cc2ccccc2)CC1 (stereo not drawn)	-1.4	-0.5%	-0.5%	24.6%	4.6%	-2.3	1.5%
Cc1cnn(CCC(=O)NNC(=S)Nc2ccccc2)c1	1.4	6.1%[38.3 µM]	-8.9%	-49.5%[inhibitor]	9.5%	-7.8	1.1%
O=C(Nc1ccc(N2CCOCC2)cc1)c1ccc(Cl)cc1N1CCCC1=O	nt	-1.4%	nt	-2.4%	-8.7%	-1.8	1.4%
CCN1CCN(c2ccc(S(=O)(=O)N3CCCCC3)cc2NC(=O)c2ccc(C)o2)CC1	nt	-1.1%	nt	16.8%[15.4 µM]	-6.6%	-1.3	-1.3%
Cc1c(C(=O)Nc2ccc(S(=O)(=O)N(C)C3CCN(C)CC3)cc2)oc2c(Cl)cccc12	nt	-2.3%	nt	-5.6%[15.4 µM]	7.7%	-9.0	-9.1%
O=C(CSc1nc2ncccc2[nH]1)NCc1ccco1	nt	1.7%	-17.7%	-13.6%	1.5%	-4.2	-2.2%
C=CCOc1ccc(/C=C/C(=O)OCC(=O)N(C)CC(=O)Nc2ccccc2Cl)cc1	nt	0.9%	nt	-7.7%	-11.6%	-1.4	-3.1%
CCCCCCCSc1nc(N)cc(=O)[nH]1	2.5	-2.2%	14.5%	4.0%[15.4 µM]	13.0%	8.8	-4.6%
COC(=O)Nc1ccc(S(=O)(=O)N2CCCC(C(=O)N3CCN(C)CC3)C2)cc1 (stereo not drawn)	1.6	-0.7%	?	-15.8%	5.9%	-2.4	-1.8%
COc1cc(NS(=O)(=O)c2ccc3c(c2)oc(=O)n3C)cc(OC)c1OC	2.5	9.1%	7.8%	-0.1%	3.9%	1.2	-0.5%
COc1ccccc1CNC(=O)c1cc(-c2ccccc2C)n(CC2CC(c3cccc([N+](=O)[O-])c3)=NO2)n1 (stereo not drawn)	nt	1.8%	nt	nt	-5.4%	-0.7	0.0%
CCOC(=O)C1CCCN(C(=O)Cn2cccc2C(=O)c2ccccc2)C1 (stereo not drawn)	0.7	-1.5%	4.0%	-1.2%	-20.7%	-6.4	0.3%
COc1ccc(NC(=O)CN(c2c(C)cccc2C)S(C)(=O)=O)cc1	6.9	1.1%	4.5%	-42.7%[inhibitor]	-9.4%	-1.9	0.9%
COC(=O)c1ccc(COC(=O)c2cc3ccccc3oc2=O)cc1	4.8	1.1%	1.6%	0.9%	3.2%	-4.8	?
Cc1oc2c(c1C(=O)NCc1ccccc1)CCCC2	2.0	nt	11.9%	24.3%	0.9%	-2.1	0.1%
COc1ccc(O)c(C(=O)c2cc(C#N)c(=O)n(CC3CCCO3)c2)c1 (stereo not drawn)	11.4	1.6%	6.6%	22.5%	-3.8%	1.8	21.1%
CCOc1ccccc1/C=C/c1onc(C)c1S(=O)(=O)N1CCC(C(=O)NC(C)(C)C)CC1	nt	3.4%	-8.8%	-0.6%	0.9%	-1.6	-0.3%
O=C(O)c1nccnc1C(=O)N1CCN(c2ccccc2)CC1	nt	1.2%	-16.9%	1.9%	7.5%	0.6	-8.0%
CC(C)CC(=O)Nc1nnc(SCC(=O)NCC2CCCO2)s1 (stereo not drawn)	0.8	1.2%	-1.7%	-4.3%[15.4 µM]	15.7%	-2.9	0.9%
CCN(CC)c1nc(N(CC)CC)[nH]c(=O)n1	nt	-1.8%	nt	17.6%	-0.5%	-4.0	5.0%
CC1CCCCC1n1c(-c2cccnc2)n[nH]c1=S (stereo not drawn)	1.1	-0.5%	8.3%	2.7%	2.2%	-5.6	-3.1%
CCc1nnc(NC(=O)CSc2ccc(Cl)cc2)s1	8.6	1.2%	2.5%	1.6%[15.4 µM]	3.7%	5.4	0.0%
COCCn1c(SCC(=O)Nc2ccccc2C(F)(F)F)nc2ccccc2c1=O	-0.1	1.2%	1.0%	-39.3%	-1.8%	7.5	nt
CC1=Nc2cc(C(=O)NCC3CCCO3)ccc2Sc2ccc(Br)cc21 (stereo not drawn)	1.4	3.7%	15.5%	4.3%	12.2%	-4.9	-0.5%
O=C(COC(=O)c1ccc(Cl)nc1)NCCc1ccc(Cl)cc1	nt	-0.1%	nt	-0.6%[15.4 µM]	-3.2%	-2.6	-1.7%
CCOC(=O)N1CCN(C(=O)c2ccc(Cl)nc2)CC1	11.1	0.3%	11.5%	5.5%	1.9%	-0.4	nt
COc1ccc(C(=O)O)cc1NCc1ccc(C)s1	-1.2	4.0%	-4.4%	-29.7%	-18.4%	0.0	nt
CCCCCCCCNc1ncnc2ccccc12	0.9	19.1%[38.3 µM]	-8.6%	4.8%	0.891µM*	-2.5	-2.5%
Nc1cc(N)cc(-c2nc3ccccc3[nH]2)c1	5.2	2.3%	-19.1%	-66.2%[inhibitor]	-8.6%	6.0	?
COc1ccc(S(=O)(=O)N2CCOCC2)cc1NC(=O)CC1CC2CCC1C2 (stereo not drawn)	nt	6.7%	nt	-19.0%	15.9%	4.3	-3.7%
CCCCc1ccc(NC(=O)CSc2nnc(C)c(=O)n2N)cc1	-8.2	1.9%	11.5%	16.9%	2.7%	-2.5	0.4%
O=C(O)c1cc2c(=O)c3ccccc3oc2nc1C(F)(F)F	2.6	0.7%	8.2%	?	16.5%	-2.9	nt
CCOc1ccc(N=C2NC(=O)/C(=C/C(=O)OC)S2)cc1	2.9	-1.5%	2.5%	12.2%	13.4%	-2.6	-2.6%
Cc1ccc(S(=O)(=O)N(C)c2cc(S(=O)(=O)Nc3ccncc3)c(C)cc2C)cc1	5.5	1.1%	9.4%	13.4%	-9.8%	2.5	-0.9%
O=C(CN1CCC(n2nnc3cc(F)ccc32)CC1)NCCc1nc2ccccc2[nH]1	-0.7	nt	-3.1%	-28.7%	1.1%	-2.5	0.1%
Cn1ccc2c(N3CCCCCCC3)cc3c(c21)C1CCC3O1 (stereo not drawn)	nt	?	nt	nt	nt	13.9	-9.7%
Cc1ccc(OCCn2cc(/C=N/NC(=O)c3ccncc3)c3ccccc32)cc1	3.3	?	0.2%	-18.5%[15.4 µM]	-1.1%	1.1	-1.1%
